Arbovirus inh: antivirals against arbovirus infection, primary screen, cell-based, full library, 10K replicate subset | arbovirus infection cell-based antiviral screen | inhibition, % at 10 µM | 0.37% of 200,000 active | AID 1251, 2008;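 active means inhibition from about 30%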;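 further: bluetongue infection of BSR cells; cell survival read as ATP light after 72 h; 0% = infected wells without compound and 100% = uninfected wells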
Mtb betalactam: beta-lactam sensitization of Mtb H37Rv, H37Rv; M. tuberculosis H37Rv growth with meropenem, percent inhibition; hits of this screen are not shown here; inhibition, % at 25 µM; 0.27% of 330,000 active; AID 434955, 2010;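 active means about 74% or more and at least 40 points above the plate without the antibiotic, then above 30% in a dose series; inconclusive means first-round hits that could not be retested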;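 further: growth measured after seven days incubation then overnight dye step; 0% = bacteria only wells and 100% = bacteria with antibiotic; twin plates without the antibiotic show which effects depend on it; some results filed as inactive read as strong as hits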
YopH PTP inh: YopH tyrosine phosphatase inhibitors, primary screen, biochemical, fluorescence Ex485/Em525. 0.16% of 140,000 active. inhibition, %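 (about 10 µM by stock and volumes)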;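 active means inhibition of 50% or more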;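 further: controls were vehicle for no effect and minimum signal wells for full effect; inactives centre near -20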
RecA splice inh: Mtb RecA intein splicing inhibitors, primary screen, biochemical, fluorescence, HTS; cell-free RecA intein splicing; inhibition, %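 (about 9 µM by stock and volumes)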; 0.75% of 290,000 active; AID 2221, 2009; in the data active means inhibition above about 30%; inconclusive means no clear call, values can overlap the other calls;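 further: 0% = vehicle wells and 100% = reference inhibitor control wells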
Target sequence (P9WHJ3 whole entry, looked up, canonical isoform): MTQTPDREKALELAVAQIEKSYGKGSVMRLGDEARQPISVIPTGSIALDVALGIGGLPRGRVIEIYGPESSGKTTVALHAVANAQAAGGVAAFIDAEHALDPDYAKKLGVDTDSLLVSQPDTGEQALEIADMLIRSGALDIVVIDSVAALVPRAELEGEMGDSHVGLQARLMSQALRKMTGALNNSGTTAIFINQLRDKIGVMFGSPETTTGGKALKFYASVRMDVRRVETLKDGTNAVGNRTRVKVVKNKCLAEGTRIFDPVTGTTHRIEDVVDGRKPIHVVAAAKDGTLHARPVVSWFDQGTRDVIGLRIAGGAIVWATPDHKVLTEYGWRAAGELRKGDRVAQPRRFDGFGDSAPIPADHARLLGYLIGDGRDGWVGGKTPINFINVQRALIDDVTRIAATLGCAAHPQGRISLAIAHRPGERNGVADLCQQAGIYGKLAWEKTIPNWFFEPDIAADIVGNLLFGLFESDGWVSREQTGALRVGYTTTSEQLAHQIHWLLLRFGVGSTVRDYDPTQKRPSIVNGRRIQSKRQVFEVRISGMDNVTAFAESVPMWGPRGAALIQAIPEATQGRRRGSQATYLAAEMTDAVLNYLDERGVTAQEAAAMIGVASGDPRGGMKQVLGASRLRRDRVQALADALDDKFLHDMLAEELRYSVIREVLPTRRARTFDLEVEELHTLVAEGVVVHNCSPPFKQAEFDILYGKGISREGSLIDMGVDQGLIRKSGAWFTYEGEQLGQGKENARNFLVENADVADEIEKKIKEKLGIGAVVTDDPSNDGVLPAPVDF
Mtb growth: M. tuberculosis H37Rv growth inhibitors, H37Rv strain (AID 1626) | M. tuberculosis H37Rv growth inhibition; higher % means a stronger effect | one-dose inhibition, % at 10 µM; IC50 in µM for titrated hits | 0.95% of 220,000 active;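 active means confirmed in a dose series; inconclusive means inhibition above 80% but not taken into the dose series; inactive means below 80% or under 30% at every dose of the series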;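 further: bacteria incubated seven days before Alamar blue readout; 0% = bacteria only wells and 100% = bacteria with antibiotic wells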
Arbovirus inh repeat: second read-out of Arbovirus inh, no call of its own (marks repeat the call); inhibition, %; measured here: 10K subset replicate screen; many hits read low in the repeat;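 first of two repeat runs on a subset; 0% = infected and 100% = uninfected wells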
An asterisk follows results filed as active; ? = inconclusive; . = not tested or not shown. Some of the compounds tested; rates above refer to the full screens.

Start of the data: the first 12 compounds as a preview:
SMILES	Arbovirus inh	Mtb betalactam	YopH PTP inh	RecA splice inh	Mtb growth	others
Cc1nn(CC(=O)Nc2ccncc2)c(C)c1[N+](=O)[O-]	-5	1	-27	0.8	1%
CCc1ccc2[nH]c(=O)c(CN(Cc3ccc4c(c3)OCO4)Cc3nnnn3C3CCCC3)cc2c1	-31	1	-18	13	13%
O=c1cc(CSc2nc3ccccc3c(=O)[nH]2)c2ccc(O)cc2o1	5	.	.	-1.0	0%
O=C(O)CCN1/C(=C/C=Nc2ccccc2)Oc2ccccc21	5	27	-32	-1.0	-2%
CCCN(CC1CCCO1)C(=O)CCc1nnc(-c2cc(C)on2)o1 (centres undefined)	-8	0	.	2.5	-2%
COC(=O)c1ccc(NC(=O)CSc2nnnn2C2CCCCC2)cc1	0	-3	-20	1.6	-6%
O=C(Nc1ccc(F)cc1)c1nsc(Cl)c1Cl	-3	-4	-28	2.3	-6%
COc1cccc(CNC(=O)CCC2CCCN(C(=O)c3ccc(OC)o3)C2)c1 (centres undefined)	3	-4	.	-1.3	-7%
COc1ccc(C2COC(=O)C2=N)c(NC(=O)c2ccc(Cl)cc2)c1 (centres undefined)	5	-2	-3	-1.4	4%
Cc1ccccc1Oc1nc2c(C)cccn2c(=O)c1/C=C(\C#N)C(=O)Nc1c(C)n(C)n(-c2ccccc2)c1=O	0	-5	-28	12	-1%
CCCC(=O)Nc1ccc(Oc2ccc(NC(=O)CCC)cc2)cc1	0	-17	-12	0.0	-2%
O=C(O)c1c(C(=O)O)c(-c2ccc(Br)cc2)n2c1CSC2	.	5	.	-1.3	.

Main list, repeating the preview:
SMILES	Arbovirus inh	Mtb betalactam	YopH PTP inh	RecA splice inh	Mtb growth	others
Cc1nn(CC(=O)Nc2ccncc2)c(C)c1[N+](=O)[O-]	-5	1	-27	0.8	1%
CCc1ccc2[nH]c(=O)c(CN(Cc3ccc4c(c3)OCO4)Cc3nnnn3C3CCCC3)cc2c1	-31	1	-18	13	13%
O=c1cc(CSc2nc3ccccc3c(=O)[nH]2)c2ccc(O)cc2o1	5	.	.	-1.0	0%
O=C(O)CCN1/C(=C/C=Nc2ccccc2)Oc2ccccc21	5	27	-32	-1.0	-2%
CCCN(CC1CCCO1)C(=O)CCc1nnc(-c2cc(C)on2)o1 (centres undefined)	-8	0	.	2.5	-2%
COC(=O)c1ccc(NC(=O)CSc2nnnn2C2CCCCC2)cc1	0	-3	-20	1.6	-6%
O=C(Nc1ccc(F)cc1)c1nsc(Cl)c1Cl	-3	-4	-28	2.3	-6%
COc1cccc(CNC(=O)CCC2CCCN(C(=O)c3ccc(OC)o3)C2)c1 (centres undefined)	3	-4	.	-1.3	-7%
COc1ccc(C2COC(=O)C2=N)c(NC(=O)c2ccc(Cl)cc2)c1 (centres undefined)	5	-2	-3	-1.4	4%
Cc1ccccc1Oc1nc2c(C)cccn2c(=O)c1/C=C(\C#N)C(=O)Nc1c(C)n(C)n(-c2ccccc2)c1=O	0	-5	-28	12	-1%
CCCC(=O)Nc1ccc(Oc2ccc(NC(=O)CCC)cc2)cc1	0	-17	-12	0.0	-2%
O=C(O)c1c(C(=O)O)c(-c2ccc(Br)cc2)n2c1CSC2	.	5	.	-1.3	.
Cc1cc(SCC(=O)Nc2c(C)n(C)n(-c3ccccc3)c2=O)nc2ccccc12	.	-19	.	0.7	.
CCOC(=O)C1(CCc2ccccc2)CCN(C(=O)CN2C(=O)CSC2=O)CC1	1	2	.	1.7	-5%
CC(C)CN(C(=O)CN1CC=C(c2ccccc2)CC1)c1c(N)n(CC(C)C)c(=O)[nH]c1=O	5	-7	.	-2.3	-2%
CC(NC(=O)C1CCC1)c1ccc(Br)cc1 (centres undefined)	-4	0	-20	-3.0	4%
O=C(CCC(=O)Nc1ccccc1Cl)N/N=C/c1c[nH]c2ccccc12	-4	1	-18	-2.7	-1%
O=C(O)CC(CP(=O)(c1ccccc1)c1ccccc1)C(=O)O (centres undefined)	3	-3	-10	0.6	-3%
Cc1c(NC(=O)c2cc(=O)[nH]c3ccccc23)c(=O)n(-c2ccccc2)n1C	-1	-18	-4	1.3	-9%
COC(=O)c1ccc(C(=O)NC2CC(C)(C)Cc3c2cnn3-c2ccc(F)cc2)nc1 (centres undefined)	.	98	.	-1.0	.
Cc1ccc(NC(=S)N2CCCCC2)cc1C	.	3	.	0.8	5%
CC(=O)N(C(C)=O)n1c(C)nc2sc3c(c2c1=O)CCCC3	-3	2	.	-1.0	2%
COc1ccc(N)c2c1C(=O)c1ccccc1C2=O	-11	-8	-25	12	18µM*
CC1=C(C(=O)OCC2CCCO2)C(c2coc3ccc(Cl)cc3c2=O)C2=C(CCCC2=O)N1 (centres undefined)	3	-5	.	-3.0	4%
CC(C)(C)SCCNC(=O)c1cccc([N+](=O)[O-])c1	3	-1	-11	-3.8	-9%
CCn1ncc2c1C(=O)NC1c3ccccc3C(=O)N21 (centres undefined)	-5	?	-20	.	-11%
O=C(c1cccc(Cl)c1)N1CCN(CCCc2ccccc2)CC1	.	3	.	2.1	.
COCCCNc1oc(-c2cccs2)nc1S(=O)(=O)c1ccc(C)cc1	-2	6	.	-9.9	4%
c1ccc(Cn2nnc3c(NCC4CCCO4)ncnc32)cc1 (centres undefined)	-2	-1	-42	0.7	-5%
O=C(CSc1nnc(NC2CCCCC2)s1)NN1C(=O)NC2(CCCCC2)C1=O	2	17	18	-6.2	2%
COc1ccc(NC(=O)c2sccc2C)cn1	-2	-6	.	5.6	7%
O=CNCC(=O)NCCc1ccc(Cl)cc1	37*	-3	-28	1.4	-8%
CCc1ccccc1N(CC(=O)N1CCN(c2ccccc2)CC1)S(C)(=O)=O	11	2	-4	2.8	-11%
Cc1ccc(Cl)cc1NC(=S)N(CCCN1CCN(C)CC1)Cc1cccs1	0	-7	.	-2.4	6%
COc1ccc(C2=C(c3ccc([N+](=O)[O-])cc3)C(=O)OC2)cc1	0	-3	.	-1.8	-22%
CC(NCc1ccccc1Cl)C(=O)Nc1ccc(C#N)cc1 (centres undefined)	4	2	.	5.9	6%
O=C(NC(c1ccc(Cl)cc1)c1c(O)ccc2ccccc12)c1ccccc1 (centres undefined)	-32	5	2	.	48%
CC1CCN(S(=O)(=O)c2ccc(NC(=O)CN3CCN(c4ccccc4)CC3)cc2)CC1	-10	-2	-21	3.1	4%
CCCC(=O)NC(Nc1ccc(S(=O)(=O)Nc2ncccn2)cc1)(C(=O)OCC)C(F)(F)F (centres undefined)	1	-2	-32	1.1	-3%
CCc1nc(N2CCCCC2C)c2oc3ccccc3c2n1 (centres undefined)	-30	94	-27	24	12%
COc1cccc(NC(=O)CCS(=O)(=O)c2cc3c(cc2Cl)NC(=O)CO3)c1	.	4	.	-1.3	.
COc1ccc(C(=O)c2sc3nc(C)cc(-c4cccs4)c3c2N)cc1	4	.	-31	-103	19%
FC(F)(F)C(F)(F)c1nnc2ccc(-n3ccnc3)nn12	25	-11	.	-0.8	-7%
O=C(OCC(=O)N(Cc1ccccc1)Cc1ccccc1)c1ccccc1NCCO	.	12	.	-1.7	.
O=C(CCl)NCC1CCCO1 (centres undefined)	8	15	.	-0.8	7%
Cc1ccc(C)c(NC(=O)c2cc(-c3ccccc3)nn2-c2ccccc2)c1	-1	95	8	8.6	72%
CCN1C(=O)C(CC(=O)Nc2ccc(OC)cc2)N(CCc2ccc(OC)cc2)C1=S (centres undefined)	-34	-6	.	4.8	10%
CCOCCOCCC(C(=O)OCC)P(=O)(c1ccccc1)c1ccccc1 (centres undefined)	1	-3	-3	-0.9	-4%
CCCN1CCN(C(=O)C(NC(=O)c2ccco2)C(C)C)CC1 (centres undefined)	.	2	.	1.2	.
Cc1c(CCO)c(=O)n2c([nH]c3ccccc32)c1C#N	.	-1	.	-7.2	.
C=CCNC(=O)c1c(O)c2cccc3c2n(c1=O)CCC3	.	4	.	2.5	.
CCc1ccc(NS(=O)(=O)c2ccc(OC)c3ncccc23)cc1	.	2	.	1.7	.
Cc1c(C(=O)Nc2ccc(F)cc2)oc2ccc(S(=O)(=O)N3CC(C)CC(C)C3)cc12 (centres undefined)	-22	12	-14	1.0	4%
O=C(OCC(=O)N1CCCC1)c1c(Cl)cccc1Cl	.	6	.	2.1	.
COc1cccc(-c2cc(C(=O)NCCN3CCOCC3)no2)c1	-7	.	-39	2.9	0%
COc1ccc(OCCC(=O)Nc2nccs2)cc1	-2	1	.	1.2	6%
Cc1ccc(NC(=S)Nc2cccc3cnccc23)cc1	17	2	.	3.8	?
CC(=O)OC1OCCOC1NC(=S)Nc1ccc(C)cc1 (centres undefined)	3	0	.	-1.3	2%
CC1Cc2ccccc2N1C(=O)C1CCN(S(=O)(=O)Cc2ccccc2)CC1 (centres undefined)	-4	-8	-55	2.1	2%
CCOC(=O)CSc1nc2sc(C(=O)O)c(C)c2c(=O)[nH]1	2	-2	-20	-0.2	1%	Arbovirus inh repeat=6

(more compounds)
SMILES	Arbovirus inh	Mtb betalactam	YopH PTP inh	RecA splice inh	Mtb growth	others
CCc1nc(SCC(=O)NCCc2ccccc2)n[nH]1	3	-1	-25	3.7	7%
CCc1c(C)[nH]c2nc3ccccc3n2c1=O	-1	4	-9	0.2	-5%
S=C(Nc1ccccc1)N1CCN(C(=S)c2ccccc2)CC1	7	1	.	-0.7	2%
COc1ccc(Br)cc1C(=O)Nc1nnn(C)n1	7	-5	-2	-0.4	-7%
Nc1cc(Cl)ccc1C(=O)OCC(=O)NC(=O)NCc1ccccc1	7	-1	-17	1.3	-8%
Cc1nn(-c2ccc(Cl)cc2)c2[nH]c(=O)c(CNCc3ccc4c(c3)OCO4)cc12	9	36	-33	-0.7	32%
CC1CCN(C2CCN(S(=O)(=O)c3ccc(C(F)(F)F)cc3)CC2)CC1	.	-8	.	-0.1	.
NC(=O)c1ccccc1OCc1nc2ccccc2s1	.	3	.	1.4	.
CC(C)c1ccc(-c2nnc(N)s2)cc1	-2	-5	-8	4.2	10%
O=C(O)/C=C\C(=O)Nc1ccccc1C#Cc1ccccc1	4	-8	-31	16	-8%
O=C(Nc1nc2ccccc2n1CCOc1ccccc1)c1ccco1	-8	94	-18	0.6	?
Cc1ccc(S(=O)(=O)NC(=O)N2CCCC(C)(C)C2)cc1	4	-6	-45	1.2	-1%
CS(=O)(=O)c1ccc2nc(NC(=O)CN3CCN(Cc4ccccc4)CC3)sc2c1	3	?	-9	-0.2	-3%
CCCSc1ccc2nc(NC(=O)OC)[nH]c2c1	-17	1	-40	-1.7	16%
CCSc1ncnc2c1sc1nc(-c3ccco3)c3c(c12)CC(C)(C)OC3	3	-9	23	3.4	.
O=C1NC(Cc2c[nH]c3ccccc23)C(=O)N1CCOc1ccc(F)cc1 (centres undefined)	-1	?	-38	.	-3%
O=C(Cc1ccc(Cl)cc1)NNC(=S)NC(=O)c1cccs1	.	65	.	.	40%
O=C(Nc1ccccc1)c1ccc(=O)n(Cc2cccc(Cl)c2)c1	-9	-4	.	0.4	2%
CCOC(=O)Oc1ccc(/C=C2\N=C(C)OC2=O)cc1	.	1	.	-0.6	.
COc1ccc(OC)c(N(CC(=O)N2CCc3ccccc3C2)S(C)(=O)=O)c1	12	2	-6	0.3	12%
Fc1cccc(NC(=S)NCCCN2CCOCC2)c1	9	-6	6	2.0	-17%
COc1ccc(-c2c3c(=O)n(C)c(=O)n(C)c3cn2-c2ccc(O)cc2)cc1	.	-1	.	1.6	6%
COc1ccc(-n2c(Cc3cccn3C)nnc2SCC(N)=O)cc1	7	?	-2	1.1	-13%	Arbovirus inh repeat=6
C=CCn1c(N)cc(=O)nc1SCC(=O)Nc1ccc2ccccc2c1	-3	5	-15	4.6	2%
c1cc2c(cc1CN1CCN(C3CCCCCC3)CC1)OCO2	.	10	.	-5.2	.
COc1ccc(/C=C/C(=O)Nc2ccccc2Cl)cc1S(=O)(=O)N1CCOCC1	.	-5	.	-2.2	9%
CCc1cc2c(=O)c(-c3ccc4c(c3)OCCO4)coc2cc1OS(C)(=O)=O	-21	75	-17	1.7	10%
Cc1cccc(C)c1Nc1nnc(SCC(=O)Nc2cc(S(=O)(=O)N3CCCCC3)ccc2Cl)s1	19	-1	-23	10.0	8%
O=C(Cn1cnc2ccccc2c1=O)NCC1COc2ccccc2O1 (centres undefined)	0	-9	15	.	4%
O=Cc1ccc(N2N=C(c3ccccc3)CC2c2ccccc2)cc1 (centres undefined)	.	4	.	-171	.
OCC1(Cc2cccc(C(F)(F)F)c2)CCN(Cc2cc(F)cc(F)c2)CC1	-31	11	.	-0.5	1%
Cc1ccc(C(c2sc3nc(C)nn3c2O)N2CCN(c3ccccc3F)CC2)cc1 (centres undefined)	6	-6	-24	1.0	-2%
C=CCNCCCCOc1ccc(C)cc1[N+](=O)[O-]	-1	1	2	1.5	2%
